# Tgondii IFNg: blocks Toxoplasma gondii growth in the presence of IFN-gamma. Toxoplasma gondii growth in IFN-gamma-treated host cells; active compounds read low; reference of the scale not given here. activity change, negative = inhibition, %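 (about 20 µM by stock and volumes)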. 3.8% of 69,000 active. AID 1259416;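 active = below -70%; inconclusive = fit judged invalid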;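 also: host cells are HeLa cells infected with Toxoplasma gondii; parasite growth read as luciferase light; one replicate is shown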
# Starred values were filed as active, the others as inactive; u = inconclusive; & = joins results of further samples; ! = a repeat was not active.
SMILES,Tgondii IFNg
Cc1cccc(OCC(=O)NCCc2csc(-c3cccc(F)c3)n2)c1,26
COc1ccc(NC(=O)Cn2c(=O)cc(C(=O)N3CCCC3)c3ccccc32)c(OC)c1,1
CCc1nc(OCC(=O)NCc2ccc(SC)cc2)c2ccccc2n1,5
CCOc1ccc(-c2nc(Cn3ccn4nc(-c5ccc(C)c(C)c5)cc4c3=O)c(C)o2)cc1,2
Cc1[nH]c2ccc(CNC(=O)c3cnc(CN4CCCC4)s3)cc2c1C,-5
C[C@H](CO)N1C[C@H](C)[C@@H](CN(C)S(=O)(=O)c2ccc3c(c2)OCCCO3)OCc2cnnn2CCCC1=O,-20
CCc1cccc(C)c1NC(=O)Cn1ncc2c(N3CCN(c4ccccn4)CC3)ncnc21,-36
CC(C)CN1C[C@@H]2CN(Cc3nccn3C)C[C@H]2C1=O,272
Cc1cccc(-n2ncc3c(NC4CCCCCCCCCCC4)ncnc32)c1,-54
CCn1ccnc1CNC(=O)CCSc1ccc2c(c1)OCCO2,79
CCOc1ccc(-c2cnc(-c3cnc(CC)nc3)[nH]2)cc1,-12
C/C=C/c1cccc(-c2nc(C(=O)NCc3cccc(OC)c3)cc3c2[C@@H](CCO)N([S@](=O)C(C)(C)C)C3)c1,-20
CCC(CC)n1nc(C)cc1NC(=O)c1ccc(=O)[nH]c1,13
NCCNS(=O)(=O)c1cccc2cnccc12,0
CCn1nccc1C(=O)N1CCOC(C(=O)N2CCCCCC2)C1 (stereo not given),-13

# Individual results from above.
# NCCNS(=O)(=O)c1cccc2cnccc12 in Tgondii IFNg → 0
# CCc1cccc(C)c1NC(=O)Cn1ncc2c(N3CCN(c4ccccn4)CC3)ncnc21 in Tgondii IFNg → -36
# CCn1nccc1C(=O)N1CCOC(C(=O)N2CCCCCC2)C1 (stereo not given) in Tgondii IFNg → -13

# Carrying on:
SMILES,Tgondii IFNg
CCC1=NOC(Cn2nc(CC3CCNCC3)n(-c3ccccc3)c2=O)C1 (stereo not given),-33
COc1ccc2c3c(n(C)c2c1)[C@@H](CO)N(C)CC31CN(C(=O)Nc2c(C)noc2C)C1,-1
CS(=O)(=O)N1CCO[C@H]2[C@@H](OCc3ccccn3)CC[C@H]21,0
NC(=O)Cn1cc(CN2CCC3(CC2)Nc2ccccc2C2=NCCCN23)c2ccccc21,-1
CC1(C(=O)NCc2ccc(F)cc2F)CCN(C(=O)Cc2ccc(F)cc2)CC1,-20
CCOC(=O)c1cccnc1-c1ccc(S(C)(=O)=O)cc1,3
COc1ccccc1OC1CCN(C(=O)c2ncc[nH]2)CC1,3
COc1cc2c(cc1OC)CN(c1nc(SC)nc(Cl)c1-c1ccccc1)CC2,246
CO[C@H]1CN(C)C(=O)c2cc(NS(=O)(=O)c3cn(C)cn3)ccc2OC[C@H](C)NC[C@@H]1C,37
Cn1cc(CN2CCC3(CC(=O)N(c4ccccc4)C3)C2)cn1 (stereo not given),-3
CCC1CN(Cc2cnn(C)c2C2CC2)CCN1C(C)C (stereo not given),-2
O=S(=O)(c1ccc(C(F)(F)F)cn1)c1ccc(S(=O)(=O)N2CCCCC2)s1,73
Cn1cc(C(=O)N2C[C@@H]3COC[C@@]3(CNS(C)(=O)=O)C2)cn1,-39
Cc1ccc(-c2coc(-c3ccc(NC(=O)Cc4cccs4)cc3)n2)cc1,-53
COc1cccc(-c2nc3c(s2)CN(S(=O)(=O)c2cccc(Cl)c2)CC3)c1,-36

# 5 records picked at random from the list so far:
SMILES,Tgondii IFNg
COc1cc2c(cc1OC)CN(c1nc(SC)nc(Cl)c1-c1ccccc1)CC2,246
CO[C@H]1CN(C)C(=O)c2cc(NS(=O)(=O)c3cn(C)cn3)ccc2OC[C@H](C)NC[C@@H]1C,37
Cc1ccc(-c2coc(-c3ccc(NC(=O)Cc4cccs4)cc3)n2)cc1,-53
CCC1CN(Cc2cnn(C)c2C2CC2)CCN1C(C)C (stereo not given),-2
Cn1cc(CN2CCC3(CC(=O)N(c4ccccc4)C3)C2)cn1 (stereo not given),-3

# Continued.
SMILES,Tgondii IFNg
COc1ccccc1-c1ccccc1CC1CN(S(=O)(=O)C(C)C)CCNC1=O (stereo not given),22
CCOc1ccc(NC(=O)C(=O)NCCc2csc(-c3ccc(C(F)(F)F)cc3)n2)cc1,-18
Cc1cnc(CNC(=O)c2nc(-c3cn(Cc4ccccc4)cn3)n3ccccc23)cn1,-40
CCn1c2ccccc2n2c(=O)n(Cn3nnc4ccccc43)nc12,11
CCC(=O)N1[C@@H](CO)[C@@H](c2ccc(C3=CCCC3)cc2)C12CN(C(=O)COC)C2,-26
Cn1nc(C(F)(F)F)c(-c2ccccc2)c1N,119
COc1ccc(-c2nc(NCCCN3CCN(Cc4ccccc4)CC3)c3ccccc3n2)cc1,-71
Cc1[nH]c(/C=C2\C(=O)Nc3ccc(S(=O)(=O)Cc4c(Cl)cccc4Cl)cc32)c(C)c1C(=O)N1CCC[C@@H]1CN1CCCC1,-89*!
Cc1ccc(C(=O)N2C[C@H](Oc3cccnc3)[C@@H]3OCCC[C@@H]32)s1,-3
COc1ccc2cc(C(=O)NCC3(O)CCCNCC3)n(C)c2c1 (stereo not given),-2
Cc1noc(C)c1CN1Cc2ccnn2CC(COCCN(C)C)C1 (stereo not given),0
CCCNC(=O)N(C)C[C@H]1Oc2ncc(C#CC3CCCCC3)cc2C(=O)N([C@@H](C)CO)C[C@@H]1C,u
CC(=O)N1CCC2(CC1)OC(=O)C(C)=C2C(=O)NCc1ccccc1Br,99
CN(C)CC(O)C1CCOC(C)(C)C1 (stereo not given),-1
O=C(OCc1cc(F)cc(F)c1)c1c(F)cccc1F,77

# The closing 4 compounds of the part above open the next one.
SMILES,Tgondii IFNg
CCCNC(=O)N(C)C[C@H]1Oc2ncc(C#CC3CCCCC3)cc2C(=O)N([C@@H](C)CO)C[C@@H]1C,u
CC(=O)N1CCC2(CC1)OC(=O)C(C)=C2C(=O)NCc1ccccc1Br,99
CN(C)CC(O)C1CCOC(C)(C)C1 (stereo not given),-1
O=C(OCc1cc(F)cc(F)c1)c1c(F)cccc1F,77
O=C(Cn1c(=O)cc(C(=O)N2CCCC2)c2ccccc21)Nc1ccc2c(c1)OCCO2,27
CN(CCNC1CCN(Cc2ccccc2)CC1)S(C)(=O)=O,-9
C=C(C)COc1ccccc1CN1[C@@H]2CC[C@H]1CNC(=O)C2,0
C=CCN=C1SC(C)C(=O)N1S(=O)(=O)c1ccccc1 (stereo not given),-21
Cc1c(Cc2c(Cl)cccc2Cl)c(=O)oc2cc(O)ccc12,-71*
S=C(NCc1ccco1)N1CCN(Cc2ccco2)CC1,-1
CC1=NN(C2CCS(=O)(=O)C2)C(=O)C1(Sc1ccccc1)Sc1ccccc1 (stereo not given),-93*
Cc1ccc(C)c(NC(=S)Nc2c(C)cccc2C)c1,113
CC(C)N(Cc1nccn1C)C(=O)C1CCCCO1 (stereo not given),2
O=C(c1[nH]cnc1-c1ccccc1)N1CCCC(N2CCCC2=O)C1 (stereo not given),4
COc1ccc(S(=O)(=O)Nc2cncc(C(=O)NCCc3ccc(OC)c(OC)c3)c2)cc1,0
CC(=O)c1sc(=S)n(CCc2ccc(Cl)cc2)c1C,48
CSc1ncccc1C(=O)N1Cc2cnc(CC(C)C)nc2C1,7
CCS(=O)(=O)Nc1ccc2c(c1)C(=O)N(C)[C@H]1CC[C@H](CC(=O)N[C@@H]3CCN(Cc4ccccc4)C3)O[C@@H]1CO2,11
Cc1cc(F)ccc1NC(=O)CN1C(=O)CCc2cc(Br)ccc21,91
COc1cccc(-c2nc3c(s2)CN(S(=O)(=O)c2ccccc2C)CC3)c1,-107*
CC1CCN(c2ncnc3c2cnn3CC(=O)NCc2ccc(F)cc2)CC1,-95*
COc1ccc(C2CCCN2C(=O)c2cc(C(C)C)on2)cc1OC (stereo not given),-1
Cc1cc(C)c(NC(=O)CN2C(=O)CCc3cc(S(=O)(=O)N4CCC(C)CC4)ccc32)c(C)c1,-31
Cc1cccnc1CC(C)Nc1ccc(-c2nccn2C)nn1 (stereo not given),204
Cn1cccc1C(=O)N1CCC2OCCN(S(C)(=O)=O)C2CC1 (stereo not given),1
Cc1nc(S(=O)(=O)N2CCC3(CC2)C(=O)Nc2ccccc23)cn1C,1
CCN(Cc1noc(CC(C)C)n1)C(=O)C1CCCO1 (stereo not given),3
CCc1nccc(CN2CCC(CNC(=O)C3CCC(C)CC3)C2)n1 (stereo not given),-5
CN(C)C(=O)COCC1CC2OCCN(Cc3cccs3)C2C1 (stereo not given),4
CCCNC(=O)[C@H]1[C@H](CO)[C@H]2Cn3c(cccc3=O)[C@H]2N1Cc1cccc(F)c1,5
Fc1c(CN2CCCC2)cccc1Oc1ncccc1C(F)(F)F,8
CCC1CN(Cc2c(Cl)ccc(O)c2Cl)CCN1C(C)C (stereo not given),4
C[C@H]1CN([C@@H](C)CO)C(=O)c2cccc(NC(=O)C3CCOCC3)c2O[C@H]1CN(C)C(=O)Nc1cccc2ccccc12,2
CCc1cnc(-c2cc(F)c3c(c2)CC(CN)O3)nc1 (stereo not given),14
COc1ccccc1-n1cc(C(=O)NCCS(C)(=O)=O)cn1,9
CCS(=O)(=O)Nc1ccc2c(c1)C(=O)N(C)C[C@@H](OC)[C@H](C)CN(CC1CCCCC1)[C@@H](C)CO2,138
Cc1cc(C(=O)N2Cc3nccn3CC(COCCN(C)C)C2)no1 (stereo not given),-4
CCOc1ncnc2cc(OC)c(OC)cc12,-59
COC(=O)c1sccc1Oc1nccc(C(F)(F)F)n1,-29
O=C(Nc1ccccc1Cl)c1c(O)c2ccccc2[nH]c1=O,23
CO[C@@H](CN(C)C(=O)c1ccccc1F)[C@@H](C)CN([C@@H](C)CO)S(=O)(=O)c1ccc(F)cc1,-8
O=C(c1cc(-c2ccncc2)n[nH]1)N1CCN(C(=O)c2cc3ccccc3[nH]2)CC1,-66
CC(C)Cc1nc(CN(C)C(=O)c2nn(C)c3c2CCCC3)no1,13
CC[C@H](NC(=O)[C@H](C)NC)C(=O)N1C[C@@H](O)C[C@H]1Cc1c(-c2[nH]c3cc(F)ccc3c2C[C@@H]2C[C@H](O)CN2C(=O)[C@H](CC)NC(=O)[C@H](C)NC)[nH]c2cc(F)ccc12,12
O=C(c1cscn1)N1C[C@H](Oc2ncccc2F)[C@@H]2OCCC[C@@H]21,0
CCN1CC(NC(=O)COc2ccccc2O)CC1=O (stereo not given),6
CCC(C)NC(=O)c1nc(-c2ccc(C)cc2)n2c1CCCCC2 (stereo not given),-92*
C[C@@H](O)C#Cc1ccc([C@H]2[C@@H](CO)N3CCCCN(CC4CC4)C[C@@H]23)cc1,-5
O=C(NCC1CCCCO1)c1ccc(CSc2ccccn2)cc1 (stereo not given),-38
CO[C@@H]1CC[C@H]2CCOc3ccc(C#N)cc3C(=O)N(C)C[C@H](c3ccccc3)CC(=O)N(C)C[C@@H]1O2,-29
C[C@H](N)C(=O)N[C@@H](C)P(=O)(O)O,-56
CCN1c2cc(C)ccc2-n2cccc2C12CCN(C(=O)NCc1cccc(OC)c1)CC2,-47
COc1cccc(NC(=O)Nc2ccc3c(c2)C(=O)N(C)C[C@H](OC)[C@H](C)CN(CC2CC2)[C@@H](C)CO3)c1,3
O=C(NCCc1csc(C2CCN(C(=O)Nc3ccccc3)CC2)n1)C1CCC1,16
CC(N)=NCc1cccc(CN)c1,15&-5
CCN1C(=O)[C@@H]2CN(S(C)(=O)=O)C[C@@H]2C12CCN(c1ncc(C)cn1)CC2,0
COc1cc(CNC(=O)C2(C)CCN(C(=O)c3cc(OC)c(OC)c(OC)c3)CC2)cc(OC)c1,34
Cc1cccc(CC(=O)NCCc2csc(-c3cccc(F)c3)n2)c1,-2
O=C1NCCOCc2cnnn2CC[C@H]1Cc1ccc(F)cc1,-14
Cc1ccccc1CC(=O)N1CCC(c2nc(C(=O)N3CCOCC3)c(C)o2)CC1,17
C[C@@H]1CCCCO[C@@H](CN(C)Cc2ccncc2)[C@H](C)CN([C@@H](C)CO)C(=O)c2cc(NS(=O)(=O)c3ccc(Cl)cc3)ccc2O1,u
O=C(CC1CC1)N1CC[C@@H]2[C@@H](CO)Nc3ccc(-c4ccc(F)cc4)cc3[C@@H]21,-47
CC(C)C#Cc1ccc([C@@H]2[C@H]3CN(C(=O)NC4CCCC4)CC(=O)N3[C@H]2CO)cc1,-43
C[C@H](CO)N1C[C@H](C)[C@H](CN(C)S(=O)(=O)c2ccc(-n3cccn3)cc2)OCc2cn(nn2)CCCC1=O,59

# (listing goes on)
SMILES,Tgondii IFNg
COc1cccc(CNc2nc(-c3ccc(Cl)cc3)nc3ccccc23)c1,-49
C[C@H](CO)N1C[C@H](C)[C@@H](CN(C)Cc2ccc3c(c2)OCO3)Oc2ccc(NC(=O)C3CCCCC3)cc2C1=O,-25
Cc1nc(-c2ccc(F)cc2)sc1CCNC(=O)C1CC1,341
CO[C@H]1CCN(C(=O)c2cc(C3CC3)on2)C[C@@H]1Cc1ccccc1,-7
COc1ccccc1CN1[C@@H]2Cn3c(cccc3=O)[C@H]1[C@@H](C(=O)N1CCc3ccccc3C1)[C@@H]2CO,-20
Fc1cccc(Cl)c1CSCc1nc2ccccc2[nH]1,-7
Cc1cc(C)c2c(N)c(-c3n[nH]c(=S)n3Cc3ccccc3)sc2n1,28
COc1ccc(C(=O)N2CCN(Cc3cnc(SC)nc3)CC2)cc1,1
Fc1ccc(C2Oc3ccc(Cl)cc3C3=C2C(c2ccccc2)n2ncnc2N3)cc1 (stereo not given),-23
Cc1ncsc1CCN(C)Cc1ccc(CO)o1,8
CC(=O)N1CC[C@H](Oc2cccnc2)[C@@H](Cc2ccccc2)C1,-8
Cc1ccc(C2=NC3(CCN(CC(=O)Nc4ccccc4C)CC3)NC2=O)cc1C,43
O=C(C[C@H]1CC[C@H]2NC[C@H](O)COC[C@@H]2O1)NCCN1CCCCC1,21
O=C(NC(=O)c1ccccc1)NC(F)(F)C(F)(F)C(F)(F)F,31
O=C(SCc1cccc(C(F)(F)F)c1)c1ccc(Cl)c(Cl)c1,-25
CCCS(=O)(=O)N1C[C@H](OCc2csc(C)n2)[C@@H]2COC[C@@H]21,5
CC1CCc2[nH]nc(C(=O)N3CCCn4nc(C(=O)NC5CC5)cc4C3)c2C1 (stereo not given),-6

# High-throughput results (PubChem BioAssay)

# Some of the compounds tested. The share of hits here may be higher or lower than overall.
